Screening data (PubChem BioAssay)
YB-1 expr inh: YB-1 expression inhibition; U2OS, qRT-PCR YB-1 vs CDIP delta delta Cp, 16 h; active compounds read high; zero = DMSO, each unit about twofold; delta delta Cp (YB-1 minus CDIP) (no concentration beside the values); actives 0.37% (n = 30,000); AID 434959;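 active means delta delta Cp rounded down to an integer at or above 3, about 3 SD of DMSO wells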;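 further: higher means less YB-1 transcript or more CDIP transcript relative to DMSO; stock transfer was 100 nL into about 100 µL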
Starred values were filed as active, the others as inactive. This is a subset. The share of hits here may be higher or lower than overall.

YB-1 expr inh	smiles
-0.183	O=C1O[C@@H](c2ccccc2)[C@@H](c2ccccc2)N2[C@@H](c3ccccc3OCCO)[C@]3(C(=O)Nc4ccc(C#CC5=CCCCC5)cc43)[C@@H](C(=O)NC[C@H](O)c3ccccc3)[C@H]12
-0.415	C[C@@H]1CN([C@@H](C)CO)C(=O)CCCn2nncc2CO[C@H]1CN(C)Cc1ccc(C(F)(F)F)cc1
0.127	C[C@H]1CN([C@@H](C)CO)C(=O)CCCn2nncc2CO[C@H]1CN(C)C(=O)Nc1ccnc(N2CCOCC2)c1
-0.388	C[C@H](CO)N1C[C@H](C)[C@H](CN(C)S(=O)(=O)c2ccc(F)cc2)OCc2cn(nn2)CCCC1=O
0.294	COc1ccccc1CN1C(=O)c2ccccc2[C@@H](C(=O)NCc2ccccc2)[C@@H]1c1ccc(CO)cc1
0.00192	C[C@H](CO)N1C[C@H](C)[C@H](CN(C)S(=O)(=O)c2ccc3ccccc3c2)OCc2cnnn2CCCC1=O
0.252	C[C@@H]1CN([C@H](C)CO)C(=O)CCCn2cc(nn2)CO[C@H]1CN(C)C(=O)Nc1ccc(C(C)(C)C)cc1
0.439	C[C@H](CO)N1C[C@H](C)[C@H](CN(C)C(=O)Nc2ccc(F)cc2)Oc2ncc(-c3cc4ccccc4o3)cc2C1=O
-0.101	C=CC[C@]12N=C(c3ccc(OCCCO)cc3)O[C@H]1c1ccccc1CN(Cc1ccccc1)C2=O
-0.281	CC(C)CN1C(=O)[C@@]2(Cc3ccccc31)c1ccccc1C(=O)N(Cc1ccccc1Cl)[C@H]2c1ccc(CO)cc1
0.348	NC(=O)COc1ccccc1/C=N/NC(=O)CCCCC(=O)NO
-0.237	C[C@H]1CN([C@@H](C)CO)C(=O)CCCn2nncc2CO[C@@H]1CN(C)Cc1ccc2c(c1)OCCO2
0.222	C[C@@H]1CN([C@@H](C)CO)C(=O)CCCn2nncc2CO[C@H]1CN(C)S(=O)(=O)c1ccc(C#N)cc1
-1.06	C[C@@H]1CN([C@@H](C)CO)C(=O)CCCn2nncc2CO[C@H]1CN(C)C(=O)Nc1ccccc1F
0.278	C[C@H](CO)N1C[C@H](C)[C@H](CN(C)C(=O)Nc2cccc(Oc3ccccn3)c2)OCc2cnnn2CCCC1=O
0.224	COC(=O)CCCCCCC(=O)N/N=C/c1ccc(OCc2ccccc2)cc1O
-0.837	O=C(CCCCCC(=O)Nc1ccccc1O)N/N=C\c1cc(O)ccc1O
-0.23	C[C@@H]1CN([C@H](C)CO)C(=O)CCCn2cc(nn2)CO[C@@H]1CN(C)C(=O)Nc1ccccc1C(F)(F)F
-0.158	O=C(N1CCCCC1)[C@]1(CCS(=O)(=O)c2ccccc2)N=C(c2ccc(OCCCO)cc2)O[C@@H]1c1ccccc1
0.0758	C=CCNC(=O)[C@H]1[C@@H]2C(=O)O[C@@H](c3ccccc3)[C@@H](c3ccccc3)N2[C@@H](c2ccc(O)cc2)[C@]12C(=O)N(C(=O)OCCOC)c1ccc(C#CC3(O)CCCCCC3)cc12
0.0585	COc1ccc(C#Cc2cnc3c(c2)C(=O)N([C@H](C)CO)C[C@H](C)[C@H](CN(C)S(=O)(=O)c2cn(C)cn2)O3)cc1OC
0.379	COc1ccc(S(=O)(=O)N(C)C[C@@H]2OCc3cnnn3CCCC(=O)N([C@@H](C)CO)C[C@@H]2C)cc1
0.000689	C[C@H](CO)N1C[C@H](C)[C@H](CN(C)Cc2cccc(O)c2)OCc2cnnn2CCCC1=O
0.0133	C[C@H]1CN([C@@H](C)CO)C(=O)CCCn2cc(nn2)CO[C@@H]1CN(C)S(=O)(=O)c1ccc(Oc2ccccc2)cc1
-0.878	CCOC(=O)N(C)C[C@H]1OCc2cnnn2CCCC(=O)N([C@@H](C)CO)C[C@@H]1C
0.191	CO[C@H](CCO)[C@H](O)c1ccc(O)c(F)c1
-0.00519	O=C(NO)c1cccc(C(=O)N/N=C/c2ccc3ccccc3n2)c1
-0.176	O=C(N/N=C/c1cc(Br)cc(Br)c1O)c1ccccn1
-0.0147	C[C@H](CO)N1C[C@H](C)[C@H](CN(C)C(=O)Nc2cccc(C(F)(F)F)c2)OCc2cn(nn2)CCCC1=O
0.25	C[C@H]1CN([C@@H](C)CO)C(=O)CCCn2cc(nn2)CO[C@H]1CN(C)C(=O)Nc1ccccc1C(F)(F)F
-0.00387	C=CC[C@@]1(C(=O)OC)N=C(c2ccc(OCCCO)cc2)O[C@@H]1c1ccccc1CN=[N+]=[N-]
-0.194	COC(=O)[C@]1(Cc2ccccc2N=[N+]=[N-])N=C(c2ccc(OCCCO)cc2)O[C@@H]1c1ccccc1N=[N+]=[N-]
-0.672	COCCOC(=O)N1C(=O)[C@@]2(c3cc(C#CCNC(N)=O)ccc31)[C@H](C(=O)NC[C@H](O)c1ccccc1)[C@H]1C(=O)O[C@H](c3ccccc3)[C@H](c3ccccc3)N1[C@@H]2c1ccc(O)cc1
-0.376	O=C(N/N=C/c1cc(Cl)cc(Cl)c1O)c1ccccn1
-0.4	O=C(N/N=C/c1c(F)c(F)c(F)c(F)c1F)c1ccccn1
0.113	C[C@@H]1CN([C@@H](C)CO)C(=O)CCCn2nncc2CO[C@@H]1CN(C)Cc1ccc2cccnc2c1
0.024	O=C(O)c1cccc(/C=N/NC(=O)c2ccc(C(=O)NO)cc2)c1
-0.0144	Cc1ccccc1/C=N/NC(=O)CCCCCC(=O)O
0.24	C[C@H](CO)N1C[C@H](C)[C@H](CN(C)S(=O)(=O)c2ccc(Oc3ccccc3)cc2)OCc2cnnn2CCCC1=O
-0.118	CC(C)COC(=O)N(C)C[C@H]1OCc2cn(nn2)CCCC(=O)N([C@@H](C)CO)C[C@H]1C
-0.387	O=C1O[C@H](c2ccccc2)[C@H](c2ccccc2)N2[C@H]1[C@@H](C(=O)N1CCCCCCC1)[C@]1(C(=O)Nc3ccccc31)[C@H]2c1ccccc1OCCO
-0.0379	O=S(=O)(NC1CCN(Cc2cccc(OCCO)c2)CC1)c1ccc(Cl)cc1
0.071	C[C@H]1CN([C@@H](C)CO)C(=O)CCCn2cc(nn2)CO[C@@H]1CN(C)S(=O)(=O)c1ccc(-c2ccccc2)cc1
0.223	C[C@H]1CN([C@@H](C)CO)C(=O)CCCn2cc(nn2)CO[C@H]1CN(C)C(=O)Nc1cccc(Oc2ccccn2)c1
0.0272	C[C@@H]1CN([C@@H](C)CO)C(=O)CCCn2cc(nn2)CO[C@H]1CN(C)C(=O)Cc1ccccc1
-0.47	C[C@@H]1CN([C@@H](C)CO)C(=O)CCCn2cc(nn2)CO[C@@H]1CN(C)Cc1cccc(C(=O)O)c1
-0.0463	O=C(N/N=C/c1cc(Br)cs1)c1ccccn1
-0.184	O=C(CCCCCCC(=O)Nc1ccccc1O)N/N=C/c1cccc(C(=O)O)c1
0.204	C[C@@H]1CN([C@H](C)CO)C(=O)CCCn2cc(nn2)CO[C@@H]1CN(C)S(=O)(=O)c1ccc(F)cc1
-0.133	O=C(O)CCCCCCC(=O)N/N=C/c1cccnc1
0.278	O=C(O)CCCCCC(=O)N/N=C/CCC1CCCCC1
-0.283	COc1ccc([Si](C)(C)[C@@H]2[C@@H](CCO)O[C@]3(C(=O)N(Cc4ccc(NC(=O)[C@H](C)O)cc4)c4ccccc43)[C@H]2C)cc1
-0.182	CCCC(O)C#Cc1cnc2c(c1)C(=O)N([C@H](C)CO)C[C@H](C)[C@H](CN(C)S(=O)(=O)c1ccc(F)cc1)O2 (stereo partly drawn)
-0.246	C[C@H]1CN([C@@H](C)CO)C(=O)CCCn2nncc2CO[C@H]1CN(C)Cc1cccc(C(F)(F)F)c1
-0.119	C[C@H]1CN([C@@H](C)CO)C(=O)CCCn2nncc2CO[C@@H]1CN(C)S(=O)(=O)c1ccc2c(c1)OCCCO2
0.0665	O=C(C1=C[C@H](c2ccc3c(c2)OCO3)C[C@H](OCc2ccc(CO)cc2)O1)N1CCCCC1
-0.228	C[C@H](CO)N1C[C@H](C)[C@H](CN(C)S(=O)(=O)c2cccc(F)c2)Oc2ncc(-c3cccc(F)c3)cc2C1=O
0.25	COCCOC(=O)N1C(=O)[C@@]2(c3cc(C#CCC(C(=O)OC)C(=O)OC)ccc31)[C@H](c1ccccc1OCCO)N1[C@H](c3ccccc3)[C@H](c3ccccc3)OC(=O)[C@H]1[C@@H]2C(N)=O
-0.277	C[C@@H]1CN([C@@H](C)CO)C(=O)CCCn2nncc2CO[C@@H]1CN(C)S(=O)(=O)c1ccc2c(c1)OCCCO2
-0.528	O=C(N/N=C/c1cn(Cc2ccccc2)c2ccccc12)c1ccccn1

New compounds follow
YB-1 expr inh	smiles
-0.211	COc1cc(O)cc(OC)c1/C=N/NC(=O)c1ccccc1O
-0.0376	C[C@@H]1CN([C@H](C)CO)C(=O)CCCn2nncc2CO[C@@H]1CN(C)CC1CCCCC1
-0.491	C=CCNC(=O)[C@H]1[C@@H]2C(=O)O[C@@H](c3ccccc3)[C@@H](c3ccccc3)N2[C@@H](c2ccc(OCCO)cc2)[C@]12C(=O)Nc1ccc(C#CC3(O)CCCCCC3)cc12
0.0719	NC(=O)[C@H]1[C@@H]2C(=O)O[C@@H](c3ccccc3)[C@@H](c3ccccc3)N2[C@@H](c2ccc(OCCO)cc2)[C@]12C(=O)Nc1ccc(C#CC3=CCCCC3)cc12
0.439	C[C@H](CO)N1C[C@H](C)[C@H](CN(C)Cc2cccc3c2OCCCO3)OCc2cnnn2CCCC1=O
-0.117	COC(=O)CCCCCCC(=O)N/N=C/c1cc(Br)cc(Br)c1O
0.321	O=C(CCCCC(=O)NN=C1CCCCCCC1)NO
-0.0101	COc1ccc(CCNC(=O)[C@@]2(Sc3ccc(C)cc3)CC(=O)N(C(C)C)[C@@H]2c2ccc(CO)cc2I)cc1
-0.0218	COc1ccc(-c2cnc3c(c2)C(=O)N([C@H](C)CO)C[C@H](C)[C@H](CN(C)Cc2cccc(C(F)(F)F)c2)O3)cc1
-0.167	NC(=O)[C@]1(Cc2ccccc2)N=C(c2ccc(OCCCO)cc2)O[C@@H]1c1ccccc1
-0.408	NC(=O)NCC#Cc1ccc2c(c1)[C@]1(C(=O)N2)[C@H](c2ccc(OCCO)cc2)N2[C@H](c3ccccc3)[C@H](c3ccccc3)OC(=O)[C@H]2[C@@H]1C(=O)N1CCCCCCC1
-0.451	O=C(N/N=C/c1cccc(O)c1O)c1ccccn1
0.367	C=CCOc1ccccc1/C=N/NC(=O)c1ccccc1O
0.553	C/C=C/[C@@H](CC(=O)N1Cc2ccccc2C[C@H]1CO)[Si](C)(C)c1ccc(OC)cc1
0.0636	COc1cc(Br)cc(/C=N/NC(=O)CCCCCCC(=O)O)c1O
0.0962	C[C@H]1CN([C@@H](C)CO)C(=O)CCCn2cc(nn2)CO[C@@H]1CN(C)C(=O)Nc1ccc(F)cc1
0.105	O=C(N/N=C/c1cccc2ccccc12)c1ccccc1O
-0.635	O=C(N1CCOCC1)[C@@]1(CCS(=O)(=O)c2ccccc2)N=C(c2ccc(OCCCO)cc2)O[C@H]1c1ccccc1
-0.244	O=C1O[C@@H](c2ccccc2)[C@@H](c2ccccc2)N2[C@@H](c3ccccc3OCCO)[C@]3(C(=O)Nc4ccc(C#CC5(O)CCCCCC5)cc43)[C@@H](C(=O)N3CCN(c4ncccn4)CC3)[C@H]12
-0.101	O=S(=O)(c1cccc2cccnc12)N1CCN(Cc2ccc(OCCO)cc2)CC1
-0.33	CNC(=O)C1=C[C@H](c2ccc(C(=O)OC)cc2)C[C@H](OCc2ccc(CO)cc2)O1
0.0823	O=S(=O)(c1cc(C(F)(F)F)ccc1Cl)N1CCN(Cc2cccc(OCCO)c2)CC1
-0.468	C[C@H]1CN([C@@H](C)CO)C(=O)CCCn2cc(nn2)CO[C@@H]1CN(C)Cc1ccc(C(=O)O)cc1
-0.343	COC(=O)CCCCCCC(=O)N/N=C/c1ccc2c(c1)OCCO2
-0.0294	C[C@@H]1CN([C@H](C)CO)C(=O)CCCn2cc(nn2)CO[C@H]1CN(C)Cc1ccc(Oc2ccccc2)cc1
0.00645	CC(C)(C)OC(=O)Nc1ccc(/C=N/NC(=O)c2ccccc2O)cc1
0.441	C[C@H]1CN([C@@H](C)CO)C(=O)c2cc(NC(=O)CCCCCC(=O)Nc3ccccc3N)ccc2O[C@@H]1CN(C)Cc1ccc2c(c1)OCO2
0.0668	COc1ccc(Br)cc1/C=N/NC(=O)c1ccccn1
0.0256	C[C@@H]1CN([C@@H](C)CO)C(=O)CCCn2nncc2CO[C@H]1CN(C)S(=O)(=O)c1ccc(-n2cccn2)cc1

Filtered by structure, the entries above containing an aryl methoxy group.
YB-1 expr inh	smiles
0.294	COc1ccccc1CN1C(=O)c2ccccc2[C@@H](C(=O)NCc2ccccc2)[C@@H]1c1ccc(CO)cc1
0.0585	COc1ccc(C#Cc2cnc3c(c2)C(=O)N([C@H](C)CO)C[C@H](C)[C@H](CN(C)S(=O)(=O)c2cn(C)cn2)O3)cc1OC
0.379	COc1ccc(S(=O)(=O)N(C)C[C@@H]2OCc3cnnn3CCCC(=O)N([C@@H](C)CO)C[C@@H]2C)cc1
-0.283	COc1ccc([Si](C)(C)[C@@H]2[C@@H](CCO)O[C@]3(C(=O)N(Cc4ccc(NC(=O)[C@H](C)O)cc4)c4ccccc43)[C@H]2C)cc1
-0.211	COc1cc(O)cc(OC)c1/C=N/NC(=O)c1ccccc1O
-0.0101	COc1ccc(CCNC(=O)[C@@]2(Sc3ccc(C)cc3)CC(=O)N(C(C)C)[C@@H]2c2ccc(CO)cc2I)cc1
-0.0218	COc1ccc(-c2cnc3c(c2)C(=O)N([C@H](C)CO)C[C@H](C)[C@H](CN(C)Cc2cccc(C(F)(F)F)c2)O3)cc1
0.553	C/C=C/[C@@H](CC(=O)N1Cc2ccccc2C[C@H]1CO)[Si](C)(C)c1ccc(OC)cc1
0.0636	COc1cc(Br)cc(/C=N/NC(=O)CCCCCCC(=O)O)c1O
0.0668	COc1ccc(Br)cc1/C=N/NC(=O)c1ccccn1
